Anaer choline gr: choline-fed anaerobic bacterial growth inhibition; Gram-negative bacterium anaerobic choline minimal medium, absorbance growth; hits give low values; many inactives read as strong as hits in the columns shown; calls only; 0.2% of 55,000 active;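 active means growth z-score on choline under -2 at 7 or 20 h with little or no fall on glycerol, limits in tiers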;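 further: stock transfer was 300 nL into about 50 µL; the organism is E. coli; final concentration not given here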
Anaer choline gr early: also measured in Anaer choline gr; calls as there; z-score; measured here: choline growth z-score, timepoint 1;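 score of optical density at 7 h as mean of two plates; lower means less growth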
Active calls of the source: *; i = inactive; + = active, no number; & = joins results of further samples. These rows are one share of the data; count on the stated rates, not on these rows.

SMILES | Anaer choline gr | Anaer choline gr early
CCCNC(=O)N1CCC2(C1)C(=O)N(C)c1ccccc12 (configuration not stated) | i | -2.5
Cc1ccc(N(Cc2nc3nc(C)cc(=O)n3[nH]2)S(C)(=O)=O)cc1 | i | -0.19
Cc1ccc(S(=O)(=O)N2CCC3(CC2)NCCN=C3NCc2ccccc2)c(C)c1 | i | 0.11
Cn1c(=O)c(=O)n(C)c2cc(NC(=O)CN3CCOCC3)c(Cl)cc21 | i | -0.5
Cc1cc(C2CCCN2C(=O)Cn2nc(C(F)(F)F)c3c2CCCC3)on1 (configuration not stated) | i | -0.37
NC(Sc1nc(=O)n(C2CCCCC2)c2c1CCC2)c1cccc2ccccc12 (configuration not stated) | i | 0.08
CC(=O)Nc1c(I)c(C(=O)N[C@H]2C(O)O[C@H](CO)[C@@H](O)[C@@H]2O)c(I)c(N(C)C(C)=O)c1I (some centres not stated) | i | 0.26
O=C(CN1CCN(S(=O)(=O)c2ccccc2)CC1)Nc1nnc(-c2ccccc2)s1 | i | 0.74
O=c1c2cccnc2nc(SCc2cc(=O)n3cc(Cl)ccc3n2)n1Cc1ccc(F)cc1 | i | -0.95
COc1ccc(C2CC(=O)C3=C(C2)Nc2onc(C)c2C3c2ccc(OC)c(OC)c2)cc1 (configuration not stated) | i | 0.44
Cc1ccc2c(c1)C=C(C(=O)Nc1ccc(F)cc1)C=CO2 | i | 1.4
CCCCCCNC(=O)c1c[nH]c2ccc(S(=O)(=O)N3CCc4ccccc4C3)cc2c1=O | i | -0.23
CC(=O)N1N=C(c2cc(C3CC3)nc3ccccc23)OC1c1ccc2c(c1)OCO2 (configuration not stated) | i | 0.54
CC(C)N1C(=O)C(C)(C(=O)N2CCN(c3ccccc3F)CC2)Oc2cccnc21 (configuration not stated) | i | 1.4
CCOc1ccc(NC(=O)COc2ccc(Cl)cc2-n2cnnc2)cc1 | i | 1.4
Cc1ccc(NC(=O)CCc2nnc3ccc(NCc4ccc(Cl)cc4)nn23)cc1 | i | 0.93
O=C1COc2ccc(S(=O)(=O)N3CCCC3C(=O)N3CCN(c4ccccc4)CC3)cc2N1 (configuration not stated) | i | -0.36
CC(C)(CNc1nn2cnnc2c2ccccc12)N1CCOCC1 | i | -0.15
CC(=O)N1CCN(c2ccc(OC[C@H]3CO[C@](Cn4ccnc4)(c4ccc(Cl)cc4Cl)O3)cc2)CC1 | i | 0.46&0.27&-0.15
O=C(O)c1cc(NS(=O)(=O)c2ccc(F)cc2)ccc1N1CCN(c2cccc(Cl)c2)CC1 | i | 0.31
COC(=O)c1sccc1NC(=O)CN1CCCN(Cc2ccc(C)cc2)S1(=O)=O | i | 0.06
CC1CCCN(c2csc3ccccc3c2=O)C1 (configuration not stated) | i | -0.96
CC1CCN(S(=O)(=O)c2cc(-c3ccc(=O)n(C)n3)cs2)CC1 | i | 0.33
CCc1cc(C2CCCN2S(=O)(=O)c2cc(F)ccc2F)on1 (configuration not stated) | i | 0.39
COC(=O)c1cc(=O)n2c(nc3ccccc32)s1 | i | -0.07
COc1ccc(-c2noc(N3CCC(Cc4ccccc4)CC3)n2)cc1OC | i | -0.14
CCn1nc(C)c2ccnc(N3CCC(C(=O)N4CCN(c5ccccc5Cl)CC4)CC3)c21 | i | 0.27
Cc1ccc(NC(=O)c2cnc3ccccn3c2=O)cc1C | i | 0.88
O=C(CN1C(=O)CC(c2ccccc2)=Nc2ccccc21)NCCc1ccccc1 | i | 0.05
O=S(=O)(c1cccs1)N1CCC2(CC1)NCCN=C2NCc1cccc(F)c1 | i | 0.4
COc1ccccc1Oc1ccnc(-c2ccc(C(=O)Nc3ccc(N4CCOCC4)cc3)cc2)n1 | i | 0.09
Cc1noc(C)c1S(=O)(=O)N1CCCCCC1c1cccs1 (configuration not stated) | i | -0.75
N[C@H](CCCP(=O)(O)O)C(=O)O | i | 0.34
CC(C)CC(=O)N[C@H](C(=O)N[C@H](C(=O)N[C@@H](CC(C)C)[C@@H](O)CC(=O)N[C@@H](C)C(=O)N[C@@H](CC(C)C)[C@@H](O)CC(=O)O)C(C)C)C(C)C | i | -0.26&0.7
Cc1ccc(NS(=O)(=O)c2cc3c4c(c2)CCN4C(=O)CC3)cc1Cl | i | 0.18
O=C(O)CCc1nc(CS(=O)(=O)c2ccc(F)cc2)no1 | i | 0.75
Cc1cc(C)c(C)c(Cn2c(C(C)O)nc3ccccc32)c1C (configuration not stated) | i | 0.79
COc1ccc(OC)c(NC(=O)N2CCN(c3cc(N(C)C)nc(C)n3)CC2)c1 | i | 0.02
CCc1onc(C)c1C1CCCN1S(=O)(=O)c1ccc(NC(C)=O)cc1 (configuration not stated) | i | 0.18
CN1C(=O)CSc2ccc(NC(=O)Nc3nccs3)cc21 | i | 1.7
Clc1ccc(-c2cc3ncc4c(n3n2)-c2ccccc2OC4)cc1 | i | -1.4
Cc1cccc(-c2ccc(Nc3cccc(C(=O)NCC(C)C)c3)nn2)c1 | i | -0.38
Cc1oc(-c2cccc(Cl)c2)nc1Cn1nnc(-c2nc(-c3ccncc3)no2)c1C | i | -0.57
CC(C)CNC(=O)C1(c2ccc(NC(=O)c3ccc(Br)cc3)cc2)CC1 | i | -0.1
COc1ccccc1NC(=O)C1CCCN1S(=O)(=O)c1cccc2cccnc12 (configuration not stated) | i | -0.23
O=C(NCC1CCCO1)c1cc2c(s1)-c1ccsc1CC2 (configuration not stated) | i | -1.4
COc1cccc(NC(=O)C2CCN(S(=O)(=O)c3cc4c(cc3C)NC(=O)CO4)CC2)c1 | i | 0.75
Cc1nc(S(=O)(=O)Nc2ccc(F)cc2)cn1C | i | -0.39

7 compounds from above, ordered by heavy-atom count, smallest number first.
SMILES | Anaer choline gr | Anaer choline gr early
CN1C(=O)CSc2ccc(NC(=O)Nc3nccs3)cc21 | i | 1.7
Cc1cc(C)c(C)c(Cn2c(C(C)O)nc3ccccc32)c1C (configuration not stated) | i | 0.79
Clc1ccc(-c2cc3ncc4c(n3n2)-c2ccccc2OC4)cc1 | i | -1.4
CC(C)CNC(=O)C1(c2ccc(NC(=O)c3ccc(Br)cc3)cc2)CC1 | i | -0.1
Cc1cccc(-c2ccc(Nc3cccc(C(=O)NCC(C)C)c3)nn2)c1 | i | -0.38
COc1ccc(OC)c(NC(=O)N2CCN(c3cc(N(C)C)nc(C)n3)CC2)c1 | i | 0.02
COc1cccc(NC(=O)C2CCN(S(=O)(=O)c3cc4c(cc3C)NC(=O)CO4)CC2)c1 | i | 0.75

More entries.
SMILES | Anaer choline gr | Anaer choline gr early
COc1ccc(-c2nn3c(Nc4ccc(F)cc4)cc(C)nc3c2C)cc1OC | i | -0.06
O=C(NC1CCCC1)c1noc2c1COc1ccccc1-2 | i | -2.2
COc1ccc2cc3n(c2c1)CC(C)(C(=O)NC1CCCC1)N(C1CCCc2ccccc21)C3=O (configuration not stated) | i | 0.2
CCn1cnc(S(=O)(=O)N2CCCC(C(=O)NCCc3nc4ccccc4[nH]3)C2)c1 (configuration not stated) | i | 0.22
Cn1nc(C(=O)N2CCCC2c2ccc(Cl)cc2)cc1C(F)(F)F (configuration not stated) | i | -0.8
O=C(Nc1ccc2c(c1)OCCO2)Nc1nnc(CC(=O)N2CCOCC2)s1 | i | 0.19
CC(=O)OCCc1c(C)nc2c(S(=O)(=O)c3ccc(C)cc3)c(Nc3ccccc3)[nH]n2c1=O | i | 0.5
O=C(CCc1nc(CSc2nc3ccccc3o2)no1)Nc1nc(-c2ccccc2)cs1 | i | 0.08
Cc1cc(C)cc(C(=O)Nc2c(C)nc3cc(C)ccn3c2=O)c1 | i | 0.72
Cc1[nH]nc(-c2c(C)sc(C)c2S(=O)(=O)NCCCc2ccccc2)c1C | i | -0.56
CC1Cn2c(C(=O)NCc3ccccc3)cc3c(Cl)ccc(c32)O1 (configuration not stated) | i | -1.2
CC(C)n1c(N2CCN(C(=O)C3CCC3)CC2)cc(=O)n(C(C)C)c1=O | i | -0.62
Cc1nn(-c2nc3ccccc3s2)c2c1C(c1c(C)sc3ccccc13)CC(=O)N2 (configuration not stated) | i | 0.26
COc1ccc(NC(=O)c2cc(-c3cccnc3)n(-c3ccccc3)n2)cc1OC | i | -0.54
CN1C(=O)c2ccccc2Sc2ccc(NC(=O)N3CCCC3)cc21 | i | -0.64
O=C(c1ccc2c(=O)n3c(nc2c1)CCCC3)N1CCCC1 | i | -0.03
CC(C)CSc1nccn2nc(-c3cccs3)cc12 | i | -0.72
COc1ccc(CNCc2c(C(=O)O)c(C)n(-c3ccc(C)cc3)c2C)c(OC)c1 | i | -0.2
Cc1nc(-c2csc(S(=O)(=O)N3CCCC(C(=O)Nc4cccnc4)C3)c2)no1 (configuration not stated) | i | 0.3
O=S(=O)(NCCc1n[nH]c(Cc2cccc(F)c2)n1)c1ccccc1F | i | 0.66
CCc1nc2nc3c(c(N4CCN(c5cc(C)ccc5C)CC4)n2n1)CCC3 | i | -0.22
COc1ccc(OC)c(CNC(=O)C(C)Oc2ccc(=O)n(-c3cc(Cl)ccc3C)n2)c1 (configuration not stated) | i | 0.44
O=C(CCCn1c(=O)c2cccn2c2ccc(F)cc21)Nc1ccccc1Br | i | -1.2
Cc1cc(NC(=O)c2ccccn2)ccc1-c1nc2ccccc2s1 | i | 1.7
Cc1cc(C)cc(OC(C)C(=O)Nc2nonc2-c2ccc(C)c(C)c2)c1 (configuration not stated) | i | -1.4
COc1ccc(S(=O)(=O)N2CCC(N3CCOCC3)CC2)cc1Cl | i | -0.08
CCNc1cc(C)nc(N2CCN(S(=O)(=O)c3ccccc3)CC2)n1 | i | -0.58
CC(=O)N1CCCSc2ccc(S(=O)(=O)N3CCC(N(C)C(C)C)CC3)cc21 | i | -0.53
Cc1cc(C)cc(-n2nnc(C(=O)O)c2C)c1 | i | -0.07
Cn1c(=O)n(-c2ccc(F)cc2)c2nc(-c3cccc(F)c3)nc(C(N)=O)c21 | i | 0.68
Cc1oc(-c2ccccc2Cl)nc1Cn1c(=O)c2cccnc2n(-c2ccccc2)c1=O | i | 0.32
CCc1onc(C)c1C1CCCN1C(=O)Nc1ccsc1C(=O)OC (configuration not stated) | i | -1.4
CCc1cccc(C)c1Nc1c(-c2cccc(O)c2)nc2cnc(Br)cn12 | i | 1.8
COc1cccc(CNC(=O)CSC2=Nc3ccccc3N=C(c3ccccn3)C2)c1OC | i | -0.4
Cc1ccc(OCc2nn3c(COc4ccc(F)cc4)nnc3s2)cc1C | i | 0.32
Cc1c(S(=O)(=O)N2CCc3nc(N4CCCCC4)ncc3C2)cnn1C(F)F | i | 1
O=C1CC(c2cccnc2)c2cc3c(cc2N1)OCCO3 (configuration not stated) | i | -1.1
CCc1ccc(NCc2cc3ccc(OC)cc3n(CC(=O)Nc3ccc4c(c3)OCO4)c2=O)cc1 | + | -1.5*
CC(C)n1cnc2nc(COc3ccc(Cl)cc3NC(=O)Nc3ccccc3F)cc(=O)n21 | i | -0.3
COc1cccc(-c2nn3c(-c4cccnc4)nnc3s2)c1 | i | -0.32
Cc1ccc(CCc2nn3c(-c4ccncc4)nnc3s2)cc1 | i | 1
Cc1ccsc1-c1nc(-c2cc3c(C)nn(-c4ccccc4)c3s2)no1 | i | 0.73
COc1ccc(OC)c(CNC(=O)C2CCCN(c3ncnc4c3oc3ccccc34)C2)c1 (configuration not stated) | i | -0.94
Cn1nc(C(=O)N2CCc3ccccc32)c2c1-c1cc(F)ccc1SC2 | i | 1.4
CCc1ccc(N2C(=O)c3ccncc3C2=O)cc1 | i | -2.5
COC(=O)c1cc(S(=O)(=O)N(C)CC(=O)Nc2ccc(OC)cc2)cn1C | i | -0.54
Clc1ccc(Cl)c(-c2ccc(-c3nn4c(-c5ccco5)nnc4s3)o2)c1 | i | -1.2
COc1cccc(NC(=O)c2ccc3c(c2)CCN3C(C)=O)c1 | i | -1.7

Record cards (already shown).
Profile of `Cc1ccsc1-c1nc(-c2cc3c(C)nn(-c4ccccc4)c3s2)no1` → Anaer choline gr = i; Anaer choline gr early = 0.73
Profile of `CCc1ccc(NCc2cc3ccc(OC)cc3n(CC(=O)Nc3ccc4c(c3)OCO4)c2=O)cc1` → Anaer choline gr = +; Anaer choline gr early = -1.5*

The listing continues:
SMILES | Anaer choline gr | Anaer choline gr early
Cc1ccccc1-c1nc2scc(CCNC(=O)c3ccccc3)n2n1 | i | -1.3
CCOC(=O)c1cc2n(n1)CC(C)(C(=O)NC1CCCCC1)N(C1CC1)C2=O (configuration not stated) | i | -0.96
Cc1csc(NC(=O)CSc2nc(-c3ccccc3)nc3c2c(=O)n(C)c(=O)n3C)n1 | i | -0.6
CCOc1ccccc1C(=O)Nc1c(C)nc(Nc2ccccc2)nc1Nc1ccccc1 | i | -1.4
Cc1cc(C)cc(OCC(O)Cn2c(C3CC(=O)N(C(C)(C)C)C3)nc3ccccc32)c1 (configuration not stated) | i | -0.44
O=C(NC1CCCCC1)c1ccc2c(c1)nc1n2CCOC1 | i | -0.64
CC1Oc2ccccc2C(=O)N(CC(=O)c2ccccc2)C1=O (configuration not stated) | i | -0.08
COc1cccc(NC(=O)Nc2nnc(SCc3cc(=O)n4oc(C)cc4n3)s2)c1 | i | 1.1
COc1ccc(-c2cc(C(=O)NCCN3CCCCC3)c3cccc(-c4ccc(F)cc4)c3n2)cc1 | i | -1.1
CCc1nc(SCc2noc(CCC(=O)Nc3cc(F)cc(F)c3)n2)n[nH]1 | i | -0.91
Cc1ccc(NS(=O)(=O)c2cc(-c3cc(C(F)(F)F)on3)sc2C)cc1Cl | i | 0.34

Bioassay records: PubChem, ICCB-Longwood Screening Facility, Harvard Medical School
